Screens deposited in PubChem BioAssay by Johns Hopkins Ion Channel Center.
CHT inh – inhibitors of human choline transporter CHT. Q9GZV3. CHT-expressing cells, membrane potential dye, choline response; active compounds read low. B-score at 10 µM. 310,000 tested, 0.86% active;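 active = B-score over 3 SD under the library average, and starting fluorescence ratio not unusually high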;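 note: choline stimulus applied at its EC90 after an EC20 pre-addition; B-score computed on integrated fluorescence ratio after choline addition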
Target sequence (Q9GZV3 whole entry, looked up): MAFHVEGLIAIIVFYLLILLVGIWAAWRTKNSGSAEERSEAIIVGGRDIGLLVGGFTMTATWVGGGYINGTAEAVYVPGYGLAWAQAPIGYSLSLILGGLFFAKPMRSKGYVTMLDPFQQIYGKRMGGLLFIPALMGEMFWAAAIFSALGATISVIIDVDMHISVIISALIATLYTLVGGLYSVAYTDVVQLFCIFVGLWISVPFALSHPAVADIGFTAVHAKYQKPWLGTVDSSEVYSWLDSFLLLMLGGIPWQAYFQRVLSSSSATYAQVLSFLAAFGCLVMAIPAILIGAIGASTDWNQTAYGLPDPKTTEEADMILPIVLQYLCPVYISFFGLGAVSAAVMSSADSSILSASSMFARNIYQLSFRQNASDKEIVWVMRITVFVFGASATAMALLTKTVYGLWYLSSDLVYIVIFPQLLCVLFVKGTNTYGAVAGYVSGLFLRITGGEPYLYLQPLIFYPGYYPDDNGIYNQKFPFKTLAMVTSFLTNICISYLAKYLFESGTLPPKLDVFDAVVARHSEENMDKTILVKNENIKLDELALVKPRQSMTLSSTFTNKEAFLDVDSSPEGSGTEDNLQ
Calls only; i = inactive. A portion of the library; most or all hits stand in other tables.

CHT inh,Compound
i,CCS(=O)(=O)N1Cc2ccccc2CC1C(=O)Nc1cccc(S(=O)(=O)N(C)C)c1 (stereo not given)
i,CCc1ccc(C(=O)/C=C/c2cnn(C)c2C)s1
i,CC(C)=CCN1CCC(n2nccc2NC(=O)c2ccccc2Cl)CC1
i,CN(C)[C@H]1N(C(=O)c2ccc(Br)cc2)N=C2c3ccccc3S(=O)(=O)N21
i,Cc1cc2ncc(-c3ccc(Cl)cc3)cn2n1
i,O=C(CN1C(=O)CSc2ncccc21)Nc1ccccc1F
i,CCCOC1CCCN(C(=O)c2ccc(OC3CCN(Cc4ccccn4)CC3)cc2)C1 (stereo not given)
i,C=CCNC(=O)c1onc(CSc2ccccc2F)c1C(=O)O
i,COc1ccc(NC(=O)CSC2=NC(=O)CC(C)=N2)cc1
i,CNS(=O)(=O)c1ccc(NCC2COc3ccccc3O2)c([N+](=O)[O-])c1 (stereo not given)
i,COc1ccc(CC(=O)OCc2nnc(C3COc4ccccc4O3)o2)cc1OC (stereo not given)
i,COc1ccc(-n2c(Cc3cccn3C)nnc2SCC(=O)Nc2nc(C)cs2)cc1
i,COC(=O)c1cccc(NC(=O)c2ccco2)c1
i,CCc1ccccc1Nc1cc(C(=O)NCc2ccccn2)c2ccccc2n1
i,Cc1ccc(-n2nc3c(c2NC(=O)C2CC2)CS(=O)(=O)C3)cc1
i,Cc1c(C(=O)N(C)c2ccccc2Cl)cnn1-c1ccccc1
i,Cc1ccc(CNC(=O)COC(=O)[C@@H]2CC(O)CN2S(=O)(=O)c2ccc3c(c2)OCCO3)cc1 (stereo not given in full)
i,CCCNc1c(NC(=O)COc2ccc(Cl)cc2)c(=O)oc2ccccc12
i,O=C(CCl)N1CCN(CC(=O)N2CCCC2)CC1
i,O=C(CSc1nnc(-c2ccc(Cl)cc2)o1)N1CCOCC1
i,O=Cc1c(NCCN2CCCC2)c2ccccc2[nH]c1=O
i,O=C1CC(c2ccccc2)CC(=O)C1=CN1CCCC1 (stereo not given)
i,CC(C)CC(=O)NC(=S)Nc1ccccc1F
i,O=C(CC(=O)N/N=C/c1c(F)cccc1Cl)NCc1ccccc1
i,CC(C)NC(=O)c1onc(CSc2ccc(F)c(F)c2)c1C(=O)O
i,O=C1NCCCc2nonc21
i,COc1ccc(C2(C(=O)NCc3ccco3)CCCC2)cc1OC
i,CCNC(=S)N(Cc1cc2c(C)ccc(C)c2[nH]c1=O)C1CCCC1
i,CC(CN1CCOCC1)OC(=O)C(C)(c1ccccc1)c1ccccc1 (stereo not given)
i,COc1ccc(NC(=O)C(Cc2ccccc2)NC(=O)c2ccco2)cc1OC (stereo not given)

Continued; the last three above are carried over.
CHT inh,Compound
i,CCNC(=S)N(Cc1cc2c(C)ccc(C)c2[nH]c1=O)C1CCCC1
i,CC(CN1CCOCC1)OC(=O)C(C)(c1ccccc1)c1ccccc1 (stereo not given)
i,COc1ccc(NC(=O)C(Cc2ccccc2)NC(=O)c2ccco2)cc1OC (stereo not given)
i,Cc1ccc(Nc2nnc(SCC(=O)c3ccc(O)cc3O)s2)cc1
i,CCOCCCNC(=S)N(CCN(C)C)Cc1cc2cc3c(cc2[nH]c1=O)OCCO3
i,Cc1ccc2cccc(OCC(=O)N3CCc4ccccc43)c2n1
i,COc1ccc(S(=O)(=O)NCCOc2ccccc2)cc1F
i,CC(C)CC(=O)Nc1cccc(NC(=O)c2ccccc2Cl)c1
i,CCCn1c(C(Cc2ccccc2)NC(=O)COC)nc2ccccc21 (stereo not given)
i,Brc1ccc(/C=N/Nc2ccc3ccccc3n2)cc1
i,COc1cc(C=C2C(=O)OC(C)(C)OC2=O)ccc1OCC(=O)Nc1ccccc1
i,COc1ccc2nc(SCC(=O)/C(C#N)=C(\C)N)[nH]c2c1
i,NC(=O)c1nsc(C(=O)N(CC(=O)NCc2ccccc2)c2ccc(F)cc2)c1N
i,CCCCN(C)CCCNC(=O)CC1Oc2ccccc2NC1=O (stereo not given)
i,CC(C)[C@H](NC(=O)c1ccco1)C(=O)OCC(=O)N1CC(=O)Nc2ccccc21
i,Cc1cc(Cl)c(S(=O)(=O)NCc2cccnc2)cc1OCC(N)=O
i,COc1ccc(CN(C(=O)CN2C(=O)C(C)Oc3ccccc32)C2CCCC2)c(OC)c1 (stereo not given)
i,O=C(O)[C@H]1CCCC[C@H]1C(=O)Nc1cc([N+](=O)[O-])ccc1F
i,O=C(c1ccc(COCC(F)(F)F)o1)N1CCCCCC1
i,O=C(NCc1ccccn1)C1CCN(S(=O)(=O)c2ccccc2)CC1
i,CC(=O)Nc1ccc(NC(=O)C2CCCN2S(=O)(=O)c2cccc3nsnc23)cc1 (stereo not given)
i,CC(NC(=O)NC(=O)c1cccc(Cl)c1)c1ccccc1 (stereo not given)
i,Cc1cc(C)nc(SCc2nc3ccccc3n2C)n1
i,Cc1ccc(SCc2c(C(=O)N/N=C/c3ccccc3)nnn2-c2nonc2N)cc1
i,COc1ccc(NC(C)=O)c(C)c1
i,CCOc1ccccc1N1C(=O)c2ccc(S(=O)(=O)c3ccc(C(=O)O)cc3)cc2C1=O
i,COC(=O)N/N=C/c1ccc(-c2ccc(Cl)c(Cl)c2)o1
i,CCOC(=O)c1nn(-c2ccccc2C)c2nc(Nc3ccccc3)cc(=O)n12
i,CNC(=S)Nc1ccc(OC(F)(F)F)cc1
i,O=C1c2ccncc2C(=O)N1CNc1ccc(Cl)cc1
i,CCC(=O)N1CCN(c2ccc(NC(=S)NC(=O)C(C)C)cc2)CC1
i,CC(=O)Nc1ccc2c(c1)CCc1ccccc1-2
i,CC1=C(C(=O)OCc2ccccc2)C(c2cccc(Br)c2)NC(=O)N1 (stereo not given)
i,CCOc1ncccc1C(=O)OCc1ccc(Cl)cc1
i,O=C1CSc2ccc(C(=O)NCC(c3ccco3)N3CCCCC3)cc2N1 (stereo not given)
i,Cc1ccc(N/C(N)=N/c2nc(C(F)(F)F)cc(C(F)(F)F)n2)cc1
i,CC(C)C(C(=O)NCc1ccco1)N(CC1CCCO1)C(=O)CNS(=O)(=O)c1ccccc1 (stereo not given)
i,O=C(NCc1cc(C(F)(F)F)cc(C(F)(F)F)c1)C1CC(c2ccccc2F)=NO1 (stereo not given)
i,O=C(O)c1ccc(NS(=O)(=O)c2cccc(S(=O)(=O)c3ccc(Cl)c(Cl)c3)c2)cc1
i,O=C(c1ccccc1Sc1ccc([N+](=O)[O-])cc1)N1CCCCC1
i,Cc1ccc(S(=O)(=O)Nc2ccccc2CNC2CCCCC2)cc1
i,CC(C)CNC(=O)COC(=O)CCC(=O)c1ccc(Cl)cc1
i,S=C(NCCc1ccccn1)Nc1ccc(Cl)c(Cl)c1
i,C/C=C/Cn1c(SCc2ccc(C)cc2)nc2c1c(=O)[nH]c(=O)n2C
i,CCn1c(CNC(=O)COc2ccc(C(C)C)cc2)nnc1SCC(=O)Nc1ccccc1F
i,O=C(NC(Cc1c[nH]c2ccccc12)C(=O)O)/C(=C/c1ccc(F)cc1)NC(=O)c1ccccc1 (stereo not given)
i,CCCc1[nH][nH]c(=O)c1C(c1cccc(Cl)c1)C(C#N)C#N (stereo not given)
i,Cc1cc(C=O)c(C)n1-c1ccc(N2CCCC2)c([N+](=O)[O-])c1
i,COCCCN(Cc1ccco1)C(=O)c1cc2c(s1)-c1ccc(Cl)cc1S(=O)(=O)C2
i,COC(=O)C1=C(C)NC(C)=C(C(=O)OCC2CCCO2)C1c1cccc(Cl)c1 (stereo not given)
i,COc1ccccc1-c1nc(N)n[nH]1
i,Cc1cccc(/C=C2\CCC(C3CCCC3)C2=O)c1 (stereo not given)
i,Cc1cc(C(=O)CS(=O)(=O)c2ccc(Cl)cc2)cc(C)c1O
i,O=C(c1cccnc1)N1CCN(c2ccc(Cl)cc2)CC1
i,O=C(NCc1nnc(SCC(=O)N2CCCc3ccccc32)o1)c1ccccc1F
i,Cc1ccc2[nH]c(=O)c3cc(C(=O)N(C)C4CCCCC4)sc3c2c1
i,CN1CCc2c(OCC(=O)N3CCCc4ccccc43)cccc2C1=O
i,O=C(NNc1nc(-c2ccccc2)cs1)c1ccco1
i,COc1ccc(NC(=O)CN(C)C(=O)c2cc3c(cc2Cl)N2CCCCCC2=NS3(=O)=O)cc1
i,CCCN1C(=O)c2cc(C(=O)NC3CCCC3)ccc2C1O (stereo not given)
i,Brc1ccccc1CN1CCN(Cc2c[nH]c3ccccc23)CC1
i,CC(=O)c1ccc(NC2c3ncccc3C(=O)N2Cc2ccc(F)cc2)cc1 (stereo not given)
i,Cc1ccc(-n2c3c(cc(C(=O)NC4CCSC4=O)c2=O)C(=O)CC(C)(C)C3)cc1 (stereo not given)

4 entries already listed, ordered by heavy-atom count, ascending.
CHT inh,Compound
i,O=C(c1cccnc1)N1CCN(c2ccc(Cl)cc2)CC1
i,CN1CCc2c(OCC(=O)N3CCCc4ccccc43)cccc2C1=O
i,O=C1CSc2ccc(C(=O)NCC(c3ccco3)N3CCCCC3)cc2N1 (stereo not given)
i,O=C(NC(Cc1c[nH]c2ccccc12)C(=O)O)/C(=C/c1ccc(F)cc1)NC(=O)c1ccccc1 (stereo not given)

Next section.
CHT inh,Compound
i,O=[N+]([O-])c1cc(/C=N/O)ccc1SCc1ccccc1Cl
i,CN1CCN(C(=O)c2cc3c(C(F)(F)F)nn(C)c3s2)CC1
i,O=C(CSc1cn(Cc2cccc(F)c2)c2ccccc12)NCc1ccc(F)cc1
i,N=c1sccn1CC(=O)NC(c1ccccc1)c1ccccc1
i,CC(=O)Nc1nc(-c2ccc3c(c2)CC(C)N3C(=O)C2CC2)c(C)s1 (stereo not given)
i,CCN(CC)C(=O)C1CCCN(Cc2ccc(F)c(F)c2)C1 (stereo not given)
i,CCn1cc(C(=O)NN)c(=O)c2cc(F)c(N3CCN(C)CC3)cc21
i,CC12CCC(C(=O)Nc3c(Cl)cccc3Cl)(C(Br)C1=O)C2(C)C (stereo not given)
i,CC(C)(C)OC(=O)N1CCC(c2cc(=O)n3[nH]cc(C(=O)Nc4ccc(F)c(Cl)c4)c3n2)CC1
i,COc1ccc(CNC(=O)C2Cc3ccccc3CN2C(=O)c2ccco2)cc1 (stereo not given)
i,Cn1ncc2c(Nc3ccc(Cl)cc3)ncnc21
i,COc1ccc(NC(=O)CCCC2CCCCC2)c(OC)c1
i,O=C(NC1=NCCS1)c1ccccc1OCc1ccc(F)cc1
i,Cc1cc2ccccc2c(=O)n1CC(=O)Nc1ccc2c(c1)OCO2
i,Cc1ccc(CN(C(=O)c2csnn2)C(C(=O)NC2CCCC2)c2ccccn2)cc1 (stereo not given)
i,COc1ccc(NC(=O)C2CCCCN2S(=O)(=O)c2ccc(F)cc2)cc1 (stereo not given)
i,CC(=O)Nc1ccc(-c2nnn(CC(=O)c3ccc(F)cc3)n2)cc1Cl
i,Cc1ccc(C(=O)N2CCN3C(=O)c4ccccc4C23c2ccc(Cl)cc2)cc1 (stereo not given)
i,Cc1cc(C)c2c(CN3CCCCC3C)cc(=O)oc2c1 (stereo not given)
i,Cc1ccc(O)c(C(CC(=O)NC2CCCCC2)c2ccccc2)c1 (stereo not given)
i,CCOc1cc(/C=C/C(=O)O)ccc1OCCO
i,Cc1cc(C(=O)COc2ccc(Cl)cc2Br)c(C)n1C
i,Cc1ccc(-n2ccc(=O)c(-c3ccnc(SCc4cccc(Cl)c4)n3)n2)cc1
i,COc1ccc(/C=C/C(=O)N(CC(C)C)CC(C)C)cc1Br
i,O=C(CCC(=O)N1CCSc2ccccc21)NC1CCCCC1
i,COc1ccc2nc3oc(C(=O)NCCCOC(C)C)cc3cc2c1
i,COc1ccc(C(=O)N2CCC(c3ccccc3)CC2)c(OC)c1OC
i,O=C(c1ccccc1)N1CCN(C(=O)c2cc3nc(-c4ccccc4)cc(C(F)(F)F)n3n2)CC1
i,Brc1cc2c(cc1/C=N/Nc1nc3ccccc3s1)OCO2
i,COc1ccc(C(=O)Cc2nnc(C)s2)c(OC)c1

Quoted at random: 4 compounds from above.
CHT inh,Compound
i,Brc1cc2c(cc1/C=N/Nc1nc3ccccc3s1)OCO2
i,CCN(CC)C(=O)C1CCCN(Cc2ccc(F)c(F)c2)C1 (stereo not given)
i,COc1ccc(NC(=O)CCCC2CCCCC2)c(OC)c1
i,COc1ccc(C(=O)N2CCC(c3ccccc3)CC2)c(OC)c1OC

Following part:
CHT inh,Compound
i,Cc1nc(-c2ccccc2)nc2[nH]c(C(C)C)cc(=O)c12
i,COc1cccc(-c2cc(C(=O)N3CCN(c4ccc(F)cc4)CC3)no2)c1
i,O=C(N/N=C/c1cccc(O)c1)c1ccc(NC(=O)c2cccc([N+](=O)[O-])c2)cc1
i,CCSc1nnc(Cn2c(=O)sc3ccccc32)n1-c1ccc(OC)cc1
i,COc1ccc(C)cc1Nc1nnc(C)c(=O)[nH]1
i,CN1CCN(CCCNC(=O)c2ccc(CS(=O)(=O)c3ccc(Br)cc3)o2)CC1
i,O=C(/C=C/c1ccccc1Cl)c1ccc(O)cc1
i,CC(C)N(Cc1nc(-c2ccc(Cl)cc2)no1)C(=O)/C=C/c1ccccc1
i,COc1ccc(C(=O)Nc2ccnn2C2CCN(C(=O)c3cccnc3)CC2)cc1
i,CC1NC(=O)NC1CCCCC(=O)O (stereo not given)
i,O=C(NCCNC(=O)c1cccnc1)c1ccc(Br)cc1
i,CCN1C(=O)[C@@H]2[C@@H](c3ccc(-c4ccc(Cl)c(Cl)c4)c(OC)c3)N3CCCC[C@@]3(C(=O)OC)[C@@H]2C1=O
i,CC1(C)CC(=O)c2sc(NC(=O)CN3CCOCC3)nc2C1
i,Cc1cc(NC(=O)CSc2nnc(C3CC3)n2-c2ccccc2)no1
i,CCN1C(=O)[C@H]2[C@@H](c3ccc(C)cc3)N3C(=O)N(c4ccc(OC)cc4)C(=O)[C@@]3(Cc3ccc(Cl)cc3)[C@H]2C1=O
i,COCCn1c(SCC(=O)Nc2ccc(OC)c(S(N)(=O)=O)c2)nc2ccccc21

Of the compounds above, two contain a cyano group.
CHT inh,Compound
i,COc1ccc2nc(SCC(=O)/C(C#N)=C(\C)N)[nH]c2c1
i,CCCc1[nH][nH]c(=O)c1C(c1cccc(Cl)c1)C(C#N)C#N (stereo not given)
